# TRPML1 blocker: qHTS for Inhibitors of the Human Mucolipin Transient Receptor Potential 1 (TRPML1); TRPML1-inducible cells, Ca2+ dye fluorescence, FDSS; stronger effect = lower value; inhibition of EC80 agonist-evoked calcium signal; activity change, negative = inhibition, % (concentration not given with the values); 390,000 tested, 0.02% active; Mucolipin-1 (Homo sapiens), Q9GZU1; in the data active means activity change below about -50%; inconclusive means about -30% to -50%; inactive means above about -30%;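 further: stimulus is agonist 54-4 at its EC80 concentration; on the % scale 0 is the no-effect control and ±100 the full control effect; compound concentration not given in the record; the text of the record puts the active cut at -80%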
# Target sequence (Q9GZU1 whole entry, looked up): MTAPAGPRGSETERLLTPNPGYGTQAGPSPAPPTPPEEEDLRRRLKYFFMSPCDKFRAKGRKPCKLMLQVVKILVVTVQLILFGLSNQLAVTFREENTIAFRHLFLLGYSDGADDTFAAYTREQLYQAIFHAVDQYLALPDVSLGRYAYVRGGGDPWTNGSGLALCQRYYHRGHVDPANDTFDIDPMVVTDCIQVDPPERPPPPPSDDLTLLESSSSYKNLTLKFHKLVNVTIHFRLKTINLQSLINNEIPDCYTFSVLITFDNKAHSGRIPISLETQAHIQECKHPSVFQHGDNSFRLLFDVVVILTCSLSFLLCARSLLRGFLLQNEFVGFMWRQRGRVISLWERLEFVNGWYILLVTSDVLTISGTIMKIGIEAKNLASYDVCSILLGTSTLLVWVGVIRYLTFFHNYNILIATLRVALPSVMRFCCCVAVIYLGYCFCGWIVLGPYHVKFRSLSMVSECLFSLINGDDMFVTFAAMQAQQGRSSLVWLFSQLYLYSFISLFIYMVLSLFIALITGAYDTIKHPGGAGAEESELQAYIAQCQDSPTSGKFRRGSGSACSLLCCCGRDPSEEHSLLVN
#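 Tet-induced TRPML1-DL cells loaded with Ca8 no-wash calcium dye were read kinetically on FDSS. Compound addition was followed by EC80 agonist 54-4 (4 uM final); inhibition was read over 110 s.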
# TRPML1 agonist: qHTS for Agonists of the Human Mucolipin Transient Receptor Potential 1 (TRPML1). Mucolipin-1 (Homo sapiens), Q9GZU1. TRPML1-expressing cells, Ca2+ dye fluorescence, FDSS; host cell line not named in the record; reference of the full effect not given here. activation, % (concentration not given with the values). 410,000 tested, 0.12% active; in the data active = activation above about 50%; inconclusive = about 30% to 50%; inactive = below about 30%; further: 0% is about no effect; the text of the record puts the active cut at 80%
#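 Agonist activity was taken from a 110 s kinetic Ca2+ dye read on the FDSS after pinning compounds onto TRPML1-DL cells. The cells were seeded at 1,500/well with Tet inducer, incubated about 16 h, then dye-loaded at room temperature.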
# Six1-Eya2 blk: qHTS Assay for Inhibitors of the Six1/Eya2 Interaction; Homeobox protein SIX1 (Homo sapiens) + Protein phosphatase EYA2 (Homo sapiens), …; 360,000 tested, 0.56% active; AlphaScreen GST-Six1/His-Eya2 binding, biochemical; stronger effect = lower value; control for the full effect not named in the record; activity change, % (no concentration beside the values); in the data active = activity change below about -65%; inconclusive = about -30% to -65%; inactive = above about -30%; further: on the % scale 0 is the no-effect control and ±100 the full control effect; compound concentration not given in the record
#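 Homogeneous AlphaScreen proximity assay pairing GST-Six1 with His-tagged Eya2 (added as 5X mix: 250 nM and 500 nM) in 50 mM Tris pH 8.0, 300 mM NaCl, 1 mM TCEP. Glutathione donor and nickel acceptor beads; 1 h, 37 °C, dark.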
# D2 ag: Beta-Arrestin HTS for Positive Allosteric Modulators of the Human D2 Dopamine Receptor: Agonists. D(2) dopamine receptor (Homo sapiens), P14416. DiscoveRx PathHunter D2 beta-arrestin, luminescence, 90 min; 100% = 57 uM dopamine signal. activation, % (test concentration not listed). 360,000 tested, 0.084% active; in the data active = activation above about 40%; inconclusive = about 15% to 40%; inactive = below about 15%; further: compound concentration not given in the record; the text of the record calls up to 30% inactive
# Target sequence (P14416 whole entry, looked up): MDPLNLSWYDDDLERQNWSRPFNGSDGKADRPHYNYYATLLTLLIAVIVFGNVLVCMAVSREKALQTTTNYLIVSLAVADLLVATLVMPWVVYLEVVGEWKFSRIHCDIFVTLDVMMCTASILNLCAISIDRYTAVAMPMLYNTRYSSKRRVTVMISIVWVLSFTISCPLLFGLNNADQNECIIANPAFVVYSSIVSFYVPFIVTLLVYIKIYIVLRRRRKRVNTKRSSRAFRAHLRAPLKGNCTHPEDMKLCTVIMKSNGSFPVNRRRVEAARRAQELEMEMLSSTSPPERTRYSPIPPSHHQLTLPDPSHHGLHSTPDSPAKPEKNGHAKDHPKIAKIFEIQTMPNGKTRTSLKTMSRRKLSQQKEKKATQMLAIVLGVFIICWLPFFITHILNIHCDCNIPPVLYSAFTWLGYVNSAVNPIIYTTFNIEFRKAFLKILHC
#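 DiscoveRx PathHunter D2 beta-arrestin cells (2,100/well) attached overnight, then compound-stimulated 90 min at 37 C in HBSS/10 mM HEPES/0.1% Tween-20 buffer; beta-galactosidase complementation read by luminescence after 1 h at ambient temperature. Dopamine 57 uM final (EC100) as control.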
# PINK1 modulator: A Quantitative High throughput Screen to Identify Chemical Modulators of PINK1 Expression; PINK1 immunofluorescence, high-content cytometry, 24 h; Potency, µM (top dose mostly 76.6 µM), for inactives: at the highest dose activation (PINK1 increase), actives largely listed as activators; 410,000 tested, 0.2% active; AID 624263, 2012; active = well fitted activation curve with a large enough effect; inconclusive = small, poorly fitted or top-dose-only effect; inactive = flat fitted curve, though single readings scatter; cell line not stated here;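 further: potency means the concentration at half of the fitted maximal effect; % of control where 0% means no effect; nearly all actives have a fitted effect of over 65% in size; a mitochondrial uncoupler was the plate control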
#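 Stable cell line treated 24 h with compounds at 5 concentrations (CCCP controls), then fixed and immunostained for PINK1 plus nuclear and cell stains; PINK1 immunofluorescence quantified by laser-scanning microplate cytometry.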
# D2 PAM: Beta-Arrestin HTS for Positive Allosteric Modulators of the Human D2 Dopamine Receptor: Potentiators | DiscoveRx D2 beta-arrestin cells, luminescence, 90 min; 100% = 57 uM dopamine signal | potentiation, % (no concentration beside the values) | 360,000 tested, 0.23% active | AID 624464, 2012; active = potentiation of 50% or more; inconclusive = 30% to 50%; inactive = 30% or less;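 further: compound concentration not given in the record; tested on top of an EC20 dose of dopamine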
#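 PathHunter beta-arrestin assay in DiscoveRx D2 cells. Compounds were added with an EC20 of dopamine (50 nM final) for 90 min at 37 deg C. Luminescence was read 1 h after detection reagent, with 57 uM dopamine as the EC100 control.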
# * = called active by the depositor; ? = inconclusive; nt = no result given; [ ] = remark or other dose.
# The line under a structure holds: TRPML1 blocker	TRPML1 agonist	Six1-Eya2 blk	D2 ag	PINK1 modulator	D2 PAM
- O=C(/C=C/c1cc2ccccc2o1)c1ccccc1O
→ -3	2.2	8	-1.2	14%	-5
- CCSCc1nnc(SCC(=O)Nc2cc(F)ccc2C)n1C
→ -5	0.3	2	-0.1	-0.5%	-6
- CCOc1ccc(S(=O)(=O)N(C)CC(=O)NCc2ccccn2)cc1Cl
→ -15	-1.3	7	-1.8	2.1%	0
- CC(=O)N1N=C(c2cccnc2)OC1c1ccc(C(C)C)cc1 (stereo not given)
→ 2	0.0	6	2.1	1.9%	7
- CC(C)(C)c1ccc(S(=O)(=O)Nc2cccc(C3OCCCO3)c2)cc1
→ 22	1.6	1	2.2	5.8%	-13
- CN(C)C(=O)CS(=O)(=O)c1ccc(Cl)cc1
→ 5	0.2	-13	-4.5	1.5%	-3
- CCC1(C)Cc2c(C#N)c(N)sc(=S)c2CO1 (stereo not given)
→ -3	2.2	-29	-6.0	-1.4%	-27
- Cc1onc(-c2ccccc2)c1C(=O)OCC(=O)Nc1ccc(OC(F)(F)F)cc1
→ 10	0.1	6	5.8	?	3
- Cc1cc2oc(=O)cc(CN3CCCCC3)c2cc1O
→ -19	0.6	5	-1.1	0.2%	-4
- CCC(C)(C(=O)NC1CCCC1)N(C(C)=O)c1ccc(C)cc1 (stereo not given)
→ -3	-0.4	3	-3.4	2.8%	-9
- Cc1ccc2cc(CN(CC3CCCO3)C(=O)C(C)C)c(=O)[nH]c2c1 (stereo not given)
→ 5	1.4	-3	-2.2	-0.6%	-5
- COc1ccc(S(=O)(=O)CCC(=O)NC2CCCCC2)cc1
→ 16	-0.8	4	0.0	-1.0%	2
- CCCC(O)c1nc2ccccc2n1Cc1ccccc1OC (stereo not given)
→ 19	0.9	nt	nt	-1.1%	nt
- CC(NC(=O)C1CCC(CNS(=O)(=O)c2ccccc2)CC1)c1ccccc1 (stereo not given)
→ -6	-1.5	1	-2.5	-2.0%	-12
- COc1cc(/C=C2/NC(=O)N(Cc3ccccc3F)C2=O)cc(OC)c1OC
→ 9	2.1	3	12	2.7%	-2
- CC1(C)CC(=O)C2=C(C1)Nc1ccccc1NC2c1cc(Cl)ccc1O (stereo not given)
→ 12	1.9	3	0.2	-0.4%	-7
- CCc1nnc(SCc2cn3c(C)cc(C)nc3n2)n1N
→ 1	0.2	10	0.9	0.5%	-25
- CCN(CC)C(=O)c1nc[nH]c1C(=O)O[C@@H](C)c1ccccc1
→ 5	0.2	0	-2.3	0.0%	-12
- CCOc1ccc(/C=C/C(=O)Nc2ccc(C(N)=O)cc2)cc1OC
→ -10	-0.6	3	-0.6	11%	-3
- O=S(=O)(c1ccc(F)cc1)N1CCN(CC(O)COCc2ccccc2)CC1 (stereo not given)
→ 42	1.7	7	0.3	-2.1%	-17
- COc1cc(OC)cc(-c2c(C#Cc3ccsc3)c3cc(-c4ccc(OC)nc4)ccc3n2C)c1
→ 13	0.1	13	-4.0	0.6%	-7
- c1ccc2[nH]c(CN3CCCCCC3)nc2c1
→ 19	1.0	0	0.6	-2.4%[38.3 µM]	-14
- COCC(=O)Nc1ccccc1C(=O)NC(C)C
→ 4	0.4	-1	1.2	-1.0%[38.3 µM]	-6
- CC(C)C1C(=O)N(Cc2cn(Cc3ccco3)nn2)CCS(=O)(=O)N1Cc1ccc(-c2ccncc2)cc1 (stereo not given)
→ 3	0.5	-2	-9.1	0.2%	2
- CC(O)CN1C(=O)C(CC(=O)Nc2ccc(Cl)cc2)SC1=Nc1ccccc1 (stereo not given)
→ -1	1.3	7	-2.2	-1.8%	-26
- COc1ccccc1C(=O)Nc1ccc(S(=O)(=O)Nc2cc(C)on2)cc1
→ 18	-0.5	-3	-11	1.2%	-24
- CC(C)Cc1ccc(CN2CCCC(NC(=O)CCN3CCOCC3)C2)cc1 (stereo not given)
→ 18	0.6	-1	-1.6	-2.0%	23
- Cc1cccn2c(=O)nc(SCC(=O)N3CCCCC3)nc12
→ 3	0.4	-4	2.4	3.9%	3
- COc1ccc(Sc2ccc(NC(=O)c3cccc(Cl)c3)cc2C#N)cc1
→ nt	0.2	9	3.2	1.0%	3
- COC(=O)c1ccc(=O)c2nc3/c(=C/O)c(O)cc(=O)c3[nH]c12
→ nt	nt	-89*	-5.5	0.8%	-9
- COc1cc(C(=O)OCC(=O)c2ccc(S(=O)(=O)N3CCCCC3)cc2)cc(OC)c1OC
→ -17	-0.4	-1	-0.9	-0.2%	-2
- O=C1NC2c3ccccc3CC2O1 (stereo not given)
→ -6	-0.2	5	-1.8	-0.8%	6
- Cc1cccc(N2C(=O)/C(=C/c3cccnc3)SC2=S)c1
→ 2	1.7	3	-2.5	2.1%	1
- COC(=O)c1cccc(NC(=O)CCNC(=O)c2ccco2)c1
→ -1	-0.3	3	-0.1	-0.4%	3
- CCOC(=O)Cn1c(C)[n+](CC(=O)c2ccccc2)c2ccccc21
→ 26	-0.6	6	-5.1	0.5%	-19
- CCOc1ccc(Br)cc1S(=O)(=O)Nc1ccc(C(=O)OCC(=O)N(C)c2ccccc2)cc1
→ -2	0.0	2	-1.9	3.3%	-2
- CCN(CC)S(=O)(=O)c1ccc(NC(=O)CSc2nc3nc(C)cc(C)c3c(=O)[nH]2)cc1
→ -12	0.4	-2	-2.1	-0.2%	-26
- Cc1cc(NC(=O)C2C3C(=O)N(CC4CCCO4)C(C(=O)NCc4ccccc4)C34C=CC2(C)O4)no1 (stereo not given)
→ -13	0.4	7	-1.7	-0.1%	-5
- Cc1ccccc1NC(=O)c1c(-c2ccccc2)noc1C
→ -14	-1.6	0	-1.5	-0.6%	-15
- COc1cc2c(cc1NC(=S)Nc1cccc(C(F)(F)F)c1)oc1ccccc12
→ -8	0.7	-16	-0.1	?	-7

# Results in TRPML1 agonist, TRPML1 blocker and Six1-Eya2 blk, for some of the entries so far:
Molecule,TRPML1 agonist,TRPML1 blocker,Six1-Eya2 blk
CCN(CC)S(=O)(=O)c1ccc(NC(=O)CSc2nc3nc(C)cc(C)c3c(=O)[nH]2)cc1,0.4,-12,-2
Cc1cc(NC(=O)C2C3C(=O)N(CC4CCCO4)C(C(=O)NCc4ccccc4)C34C=CC2(C)O4)no1 (stereo not given),0.4,-13,7
Cc1ccccc1NC(=O)c1c(-c2ccccc2)noc1C,-1.6,-14,0
COc1cc2c(cc1NC(=S)Nc1cccc(C(F)(F)F)c1)oc1ccccc12,0.7,-8,-16

# Next results.
# The line under a structure holds: TRPML1 blocker	TRPML1 agonist	Six1-Eya2 blk	D2 ag	PINK1 modulator	D2 PAM
- CN(C)c1ccc(/C=N/NC(=O)Cn2nnc3ccccc32)cc1
→ -2	1.2	-14	1.7	0.5%	-4
- O=C(CCCC(=O)OCC(=O)c1cccs1)Nc1ccc(F)cc1
→ 8	1.5	7	-2.2	-1.7%	-6
- CCCCn1cc(SCC(=O)O)c2ccccc21
→ 13	3.6	-4	-2.1	-4.0%	-1
- CC(C)CCOP(=O)(c1ccc(N(C)C)cc1)C(O)c1ccccn1 (stereo not given)
→ 9	0.0	0	2.6	-0.2%	-8
- CCNC(=O)CSc1nc2ccccc2c(=O)n1OC
→ 31	-0.3	2	-2.4	1.0%	-4
- O=C(COc1ccccc1)NCc1nnc(SCC(=O)Nc2nccs2)n1-c1ccccc1
→ 5	0.2	-1	-2.4	0.1%	-3
- CCC(C)Nc1nc(N)c([N+](=O)[O-])c(NCCO)n1 (stereo not given)
→ 15	2.4	7	-0.5	-0.1%	1
- O=C(N/N=C/c1ccc(Br)s1)c1cccs1
→ -3	-0.8	-5	2.6	-0.7%	-6
- O=C(CNc1n[nH]c(=O)[nH]c1=O)N/N=C/C=C/c1ccccc1
→ 6	-0.2	1	-5.2	1.2%	-13
- CC(C)(C)c1nnc(NC(=O)CS(=O)(=O)Cc2ccccc2)s1
→ 16	0.2	2	-6.8	-0.1%	-1
- CCn1c(SCc2ccc(C(=O)Nc3nccs3)cc2)nnc1-c1ccc(N)cc1
→ 1	-1.1	?	-1.9	-0.9%	-12
- COc1ccc(C)cc1NC(=O)c1cc2ccccc2cc1OCC(=O)NCc1ccco1
→ 1	0.6	-5	-2.4	9.4%	-2
- Cc1ccc(C)c(C(=O)CN2C(=O)CCC2=O)c1
→ 9	1.0	8	-0.7	-0.3%	-5
- Cc1c(-n2c(SCC(C)C)nc3ccccc3c2=O)c(=O)n(-c2ccccc2)n1C
→ -5	-0.1	-10	-1.6	2.2%	-7
- CNC(=O)C[C@H]1C(=O)N(CCc2ccccc2)C[C@@H]1c1ccc(OC)cc1
→ 3	-0.2	2	-7.7	0.6%	-7
- COc1ccc(OC)c(NC(=O)CSC2=Nc3ccccc3C3=NC(CCC(=O)NC4CCCCC4)C(=O)N23)c1 (stereo not given)
→ -3	-0.6	nt	nt	0.1%	nt
- Clc1nc(-c2n[nH]nc2Cl)n[nH]1
→ -10	0.0	1	-1.6	0.6%	1
- CCn1nc(NC(C)=O)c2cc3ccc(C)cc3nc21
→ -4	0.8	-12	-1.0	0.2%	-5
- CC(=O)NC1CC2CCCC(C1)N2C(=O)Nc1cccc(Cl)c1 (stereo not given)
→ 16	-0.4	4	0.8	0.6%	-2
- O=C(CNC(=O)C1(c2ccccc2)CC1)Nc1ccc(F)c(F)c1
→ -11	-0.4	-2	-4.8	7.1%	4
- CCc1ccc(NC(=O)CC2C(=O)N(c3ccc(C)cc3)C(=O)N2C2CC2)cc1 (stereo not given)
→ -23	0.5	4	1.7	1.4%	-5
- COc1ccc(Cl)cc1NC(=O)Cn1c(=O)n2nc(-c3ccccc3)nc2c2ccccc21
→ 20	-0.4	nt	nt	1.5%	nt
- COc1ccc(/C=C(/CC(=O)NCc2ccc(Cl)cc2)c2nc3ccccc3s2)cc1
→ 76	2.2	4	2.4	?	-21
- CCOC(=O)C1=C(C)NC(=O)NC1
→ 9	-0.1	5	-3.1	0.0%	3
- CC(C)(C)OC(=O)CC[C@@H](C(=O)NCCCCCCCCCCC(=O)N1CCN(C(=O)OC(C)(C)C)CC1)n1cc(CCCCCNC(=O)OC(C)(C)C)nn1
→ -3	1.3	1	-0.5	1.1%	-1
- CC(NC(=O)CSc1ncccn1)c1ccccc1 (stereo not given)
→ 1	-0.1	1	1.4	nt	-15
- Cc1oc2ncnc(N3CCCCC3)c2c1C(=O)N1CCN(c2cccc(C(F)(F)F)c2)CC1
→ -5	-1.1	nt	nt	0.6%	nt
- COC(=O)c1ccccc1NC(=O)C1CCCN(c2nnc(C)c3c(C)n(-c4ccccc4)nc23)C1 (stereo not given)
→ -11	0.8	nt	nt	3.6%	nt

# Screening data as filed in PubChem.
